Assay outcomes: PubChem BioAssay, National Center for Advancing Translational Sciences (NCATS)
Rango dissoc inh: prevents RanGTP from dissociating the Rango-importin beta complex; Potency, µM (series often up to 46.1 µM), for the others: top-dose activity change, negative = inhibition; Biochemical FRET Rango-importin beta, RanGTP-induced dissociation; O95149+P62826; 340,000 compounds, 0.071% hits; active means falling FRET ratio curve, often poorly fitted, with flat reads before Ran was added; inconclusive means other falling curves, or compound fluorescence or quenching; inactive means flat or rising ratio curve;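 further: potency means the concentration at half of the fitted maximal effect; % of control where 0% means no effect; nearly all actives have a fitted effect of over 45% in size; -100% = wells without RanGTP and RCC1; the record marks most hits as doubtful in a second field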
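Rango (0.1 uM)–importin beta (0.25 uM) complex; RanGTP-RCC1 trigger; 45 min RT; CFP/YFP FRET read.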
Rango-impB inh: inhibitors of Rango-importin beta complex formation | Rango CFP/YFP FRET sensor + importin beta, 45 min | Q14974 | 340,000 compounds, 0.031% hits | Potency, µM (doses to about 92.2 µM), for inactives: top-dose inhibition of complex formation | AID 540263; active = rising FRET ratio curve, often small or poorly fitted; inconclusive = mostly compound fluorescence or quenching in the first reads; inactive = flat curves in all reads;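 further: potency means the concentration at half of the fitted maximal effect; 0% = DMSO wells and 100% = buffer wells lacking importin beta; nearly all actives have a fitted effect of over 15% in size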
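FRET biosensor Rango (snurportin 1 IBB between N-terminal EYFP and C-terminal Cerulean), 50 nM in PBS/1 mM DTT/0.02% Tween-20/0.1% BSA, preincubated 5 min RT with compound; 0.125 microM importin beta added, 45 min RT, CFP/YFP FRET ratio read.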
miR-21 reporter: miR-21 reporter, rising signal; HeLa miR-21 FLuc reporter, luciferase, 48 h; Potency, µM (top dose mostly 38.3 µM), without a hit: at the highest dose reporter change, positive = more light; 340,000 tested, under 10 active; active = well fitted rising curve with a large enough effect; inconclusive = small, poorly fitted or top-dose-only effect; inactive = no such curve, though single readings can be large or run the other way;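 further: % of control where 0% means no effect; miR-21 action dims this reporter so a rising signal means less miR-21 action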
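Using DMEM plus 10% FBS, HeLa miR-21-FLuc cells are incubated with test compounds (final up to about 40uM) for 48 hours; firefly luciferase signal is then imaged following reagent-mediated lysis.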
GLA inh pH 4.5: inhibitors of human alpha-galactosidase A at pH 4.5 | P06280 | purified enzyme, 4-MU-alpha-Gal fluorescence, pH 4.5 | activity change, negative = inhibition, % at 105 µM | 230,000 tested, under 10 active | AID 1467; inconclusive = small, poorly fitted or top-dose-only inhibition, or a rising curve; inactive = flat fitted curve, though single readings scatter; no compound was filed as active;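 further: 0% = full activity with enzyme and -100% = basal without enzyme; dose as in the result columns while the protocol names 77 µM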
Target sequence (P06280 whole entry, looked up): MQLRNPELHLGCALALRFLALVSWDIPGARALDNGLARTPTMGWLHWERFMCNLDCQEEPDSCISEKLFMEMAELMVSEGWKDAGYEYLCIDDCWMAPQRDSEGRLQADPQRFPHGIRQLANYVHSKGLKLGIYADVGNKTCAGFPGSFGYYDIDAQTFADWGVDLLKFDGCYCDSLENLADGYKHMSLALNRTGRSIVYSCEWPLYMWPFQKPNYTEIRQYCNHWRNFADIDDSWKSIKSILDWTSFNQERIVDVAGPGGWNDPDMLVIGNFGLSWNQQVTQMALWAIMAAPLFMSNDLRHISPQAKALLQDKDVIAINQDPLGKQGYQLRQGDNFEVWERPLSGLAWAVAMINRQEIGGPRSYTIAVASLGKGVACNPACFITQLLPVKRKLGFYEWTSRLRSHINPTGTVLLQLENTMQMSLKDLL
Active calls of the source: *; ? = inconclusive; . = not tested or not shown; [ ] = remark or other dose. These rows are one share of the data (hit frequency here may not be typical).

SMILES	Rango dissoc inh	Rango-impB inh	miR-21 reporter	GLA inh pH 4.5
CCOC(=O)c1cc(-c2cccs2)[nH]n1	2.2%	-1.6%	-0.6%	5.1
S=C(Nc1ccccc1Cl)NC1CCN(Cc2ccccc2)CC1	-6.3%	6.6%	0.2%	2.2
CCc1cc2c3c(c1)C(C)CC(C)(C)N3C(=O)/C2=C1\SC(=O)NC1=O (stereo not given)	0.4%	1.7%	0.0%	-5.1
CN(C)N=C1c2cc(S(=O)(=O)N3CCOCC3)ccc2-c2ccc(S(=O)(=O)N3CCOCC3)cc21	-9.3%	0.5%	0.7%	-0.1
COc1ccc(C(C)=O)cc1CSc1ccccn1	-10.7%	0.7%	-13.4%	0.2
CC(Cc1ccccn1)NC(=O)c1ccc(OC2CCN(Cc3ccccn3)CC2)cc1 (stereo not given)	?	-5.1%	-20.4%	.
O=c1cc(CO)oc(C(Nc2cccc([N+](=O)[O-])c2)c2ccccn2)c1O (stereo not given)	-27.3%	?	-7.3%	3.3
Cc1nc2cc(C(=O)NCCN3CCOCC3)ccc2n1-c1ccc(F)cc1F	5.3%	-2.0%	-9.0%	-7.5
O=C(Nc1nc2ccccc2c(=O)[nH]1)c1ccccc1SCc1ccccc1	12.2%	0.3%	-1.6%	2.0
COc1ccc(C2=C3C(=O)OCC3Cc3ncn(Cc4ccccc4)c32)cc1 (stereo not given)	23.9%	-0.7%	.	.
COc1ccc(CCNC(=S)Nc2ccc(C(C)C)cc2)cc1	12.9%	0.0%	8.5%	-8.2
Cn1c(=O)n(CC(=O)O)c(=O)c2c1nc1n2CCCN1Cc1ccccc1	-9.7%	1.5%	-5.8%	.
COc1ccc(N2CCN(C(=O)COC(=O)[C@@H](NC(=O)c3c(F)cccc3F)C(C)C)CC2)cc1	10.1%	-0.6%	.	.
COc1cccc(CNCc2ccco2)c1O	2.4%	1.6%	-0.4%	.
Cc1onc(-c2c(Cl)cccc2Cl)c1NC(=O)NC1CCSC1 (stereo not given)	-2.7%	2.5%	0.3%	6.5
CCCC(=O)NC(C)C(c1cccs1)N1CCN(C)CC1 (stereo not given)	0.1%	-1.7%	-3.0%	1.6
COc1ccc(NS(=O)(=O)c2ccc(-c3coc(C)n3)cc2)c(OC)c1	-2.5%	?	-3.7%	.
O=C(Nc1ccc(NC(=O)c2cccs2)cc1)c1ccc2ccccc2c1	4.7%	?	-27.1%	.
CCCC(C(=O)NCCC(C)C)N(Cc1ccccc1)C(=O)c1snc(C(N)=O)c1N (stereo not given)	23.9%	4.2%	16.1%	.
CC1CC(C)(C)NC(=S)N1CCCC(=O)NCCc1ccc(Cl)cc1 (stereo not given)	-8.1%	-3.0%	-4.3%	-1.3
O=C(Nc1nc(COc2ccccc2)cs1)c1ccccc1F	6.1%	-3.4%	-33.2%	-1.0
O=c1oc2ccccc2c2c1nnn2CCO	0.4%	1.3%	0.4%	-0.9
O=C(CN1C(=O)NC2(CCCC2)C1=O)OCc1ccc(F)cc1	6.1%	2.7%	.	.
COc1cccc(CN(C)C(=O)COc2ccc(C(=O)c3ccc(Cl)cc3)cc2)c1OC	-7.3%	-1.4%	-1.6%	.
CC(C)N(C(=O)[C@H]1C[C@H](CC(=O)NCCCN(C)C)C(=O)N2CCc3c([nH]c4cc(CCC(=O)N(C)C)ccc34)[C@]12C)C(C)C	8.3%	-0.1%	.	.
CCCC(=O)NC(c1ccc(OC)cc1)c1ccc2cccnc2c1O (stereo not given)	0.6%	0.4%	28.4%	-18.5
COc1cccc(NC(=O)Nc2cccn(Cc3ccc(C)cc3)c2=O)c1	-0.5%	-1.6%	-0.1%	-11.7
O=C(NC1CCCCC1)N(CCO)Cc1cc2cc3c(cc2[nH]c1=O)OCCO3	-6.1%	-0.6%	-8.9%	-10.6
O=C(/C=C/c1ccco1)NC(=S)Nc1cccc(C(=O)O)c1	-23.7%	?	-34.0%	.
CC1CCCN(C2(O)C(=O)Nc3ccc([N+](=O)[O-])cc32)C1 (stereo not given)	5.3%	5.7%	-5.0%	.
COc1ccc(-c2nnn(CC(=O)N(CC(=O)NC3CCCC3)Cc3ccco3)n2)cc1OC	-7.1%	-7.2%	-6.0%	8.3
Cc1ccccc1-c1nc(CS(=O)(=O)CC(=O)NCc2ccc(F)cc2)c(C)o1	0.6%	-3.8%	8.0%	.
O=C(NCCN1CCOCC1)c1cn(CCc2ccccc2)nn1	8.9%	-0.2%	-3.9%	6.9
O=C(O)CN1C(=O)c2ccc(Oc3ccc4c(c3)C(=O)N(CC(=O)O)C4=O)cc2C1=O	-2.3%	-1.4%	2.8%	4.9
Cc1cc(C(=O)Nc2ccc3c(c2)OCCO3)co1	2.2%	11.8%	-23.0%	-5.5
O=C(O)c1ccccc1Nc1ccc(OC(F)F)cc1	9.0%	2.1%	-27.9%	5.5
c1ccc(-c2ccc(OCCOCCn3cncn3)cc2)cc1	0.9%	-4.9%	-40.5%	-16.9
CN(C(=O)c1cccc(NC(=O)Cc2ccc(NC(=O)C3CCCN(C(=O)CCc4ccccc4)C3)cc2)c1)C1CCC1 (stereo not given)	0.6%	-0.4%	.	.
CC(C)N1CCN(Cc2ccc(C#CC(C)(C)O)s2)CC1CCO (stereo not given)	-12.4%	-0.6%	-0.5%	7.1
CCOc1ccc(CCNC(=O)COC(=O)COc2cc(C)cc(C)c2)cc1OCC	-2.7%	0.9%	.	.
CCOC(=O)c1cccc(NC(=O)c2cnc3ccccc3n2)c1	18.9%	-1.0%	-42.7%	-1.3
COC(=O)c1sccc1S(=O)(=O)Nc1ccc(S(N)(=O)=O)cc1	12.7%	4.5%	-4.6%	5.5
COc1ccc(CN2CCN(Cc3ccccc3)C(CCO)C2)cc1OC (stereo not given)	-3.2%	6.1%	0.8%	-0.3
N#Cc1cc2c(nc1SCC(=O)Nc1sc3c(c1C#N)CCC3)CCCC2	-12.2%	-2.8%	-7.0%	1.7
CCN(CC(=O)Nc1cc(Cl)ccc1C)C(=O)C1CCCCC1	-2.2%	-0.1%	-0.4%	-23.7

6 records picked at random from those above, as already listed:
SMILES	Rango dissoc inh	Rango-impB inh	miR-21 reporter	GLA inh pH 4.5
COC(=O)c1sccc1S(=O)(=O)Nc1ccc(S(N)(=O)=O)cc1	12.7%	4.5%	-4.6%	5.5
COc1ccc(-c2nnn(CC(=O)N(CC(=O)NC3CCCC3)Cc3ccco3)n2)cc1OC	-7.1%	-7.2%	-6.0%	8.3
CN(C(=O)c1cccc(NC(=O)Cc2ccc(NC(=O)C3CCCN(C(=O)CCc4ccccc4)C3)cc2)c1)C1CCC1 (stereo not given)	0.6%	-0.4%	.	.
Cc1cc(C(=O)Nc2ccc3c(c2)OCCO3)co1	2.2%	11.8%	-23.0%	-5.5
Cc1ccccc1-c1nc(CS(=O)(=O)CC(=O)NCc2ccc(F)cc2)c(C)o1	0.6%	-3.8%	8.0%	.
CCOc1ccc(CCNC(=O)COC(=O)COc2cc(C)cc(C)c2)cc1OCC	-2.7%	0.9%	.	.

The results go on:
SMILES	Rango dissoc inh	Rango-impB inh	miR-21 reporter	GLA inh pH 4.5
Cc1cccc(NC(=O)CCSc2nc(C)cc(C)n2)c1	5.3%	-3.8%	-10.4%	-3.0
CCCCn1c(SCC(=O)Nc2cc(C(F)(F)F)cc(C(F)(F)F)c2)nnc1C(CC)N(C)C (stereo not given)	-0.4%	?	-11.7%	-25.4
CCOc1cccc2sc(Nc3nc4ccc(NC(C)=O)cc4s3)nc12	-1.2%	2.7%	18.9%	4.0
CC(C)(C)C(=O)Nc1nnc(SCc2cccc(F)c2)s1	8.7%	-0.2%	-46.2%	-3.5
O=C(O)c1ccc2[nH]c3c(c2c1)CSCC3	-0.9%	?	-7.3%	0.8
O=C(Cc1ccccc1)N1CCN(C(=O)c2ccc([N+](=O)[O-])cc2)CC1	-0.8%	1.2%	-0.3%	7.3
c1cncc(CSc2ccc(-c3cccnc3)nn2)c1	20.2%	3.2%	-16.4%	-8.8
COc1ccc([C@H]2CC(=O)C=C(c3cccc(C(C)C)c3)C2)cc1OC	0.0%	5.2%	.	.
CC1=Nc2ccccc2N=C(NC(=O)/C=C/C(=O)O)C1c1ccccc1 (stereo not given)	-11.1%	-2.1%	-50.2%	-4.6
Cc1nonc1NC(=O)CSc1nnc(-c2ccoc2C)n1CC(C)C	-1.8%	-1.0%	-1.5%	5.8
COc1cccc(-c2nn(C)c3sc(C(=O)NCc4ccc(C)o4)cc23)c1	0.5%	0.1%	13.4%	-4.5
COc1ccc(OC)c(NC(=O)COC(=O)CCNc2ccccc2OC)c1	-6.2%	0.5%	.	.
CCCNc1nc(=S)n(-c2ccccc2)c(C)c1C(C)=O	3.7%	-3.5%	2.2%	10.1
Cc1ccc(NC(=O)O/N=C2\CCCCC2c2ccc([N+](=O)[O-])cc2[N+](=O)[O-])cc1 (stereo not given)	1.4%	2.8%	-4.8%	-7.2
COc1ccc(C(=O)OC2C(OC)OCC(O)C2O)cc1 (stereo not given)	9.2%	-0.8%	.	.
O=C1CN=C(Nc2cccc(C(F)(F)F)c2)N1C1CCCC1	5.7%	-1.2%	-9.1%	-0.5
O=C1C2CCCCN2C(=O)N1CCCCN1CCN(c2ccc(F)cc2)CC1 (stereo not given)	7.2%	4.2%	-3.8%	.
O=C(Oc1cccc(-n2cnnn2)c1)c1ccccc1	0.5%	-5.8%	-2.4%	0.2
CCNC(=S)NCc1ccc2[nH]c(C)cc2c1	-13.7%	-0.9%	0.2%	-2.7
CCCn1c(SCN2C(=O)c3ccccc3C2=O)nc2cc(Cl)ccc2c1=O	-12.8%	4.5%	-3.3%	-0.8
COc1ccc(NC(=O)Nc2cccs2)cn1	-3.1%	-0.7%	-25.5%	.
COc1ccc(N2C(=O)CCC(C(=O)NCc3ccccn3)C2c2ccc(F)cc2)cc1 (stereo not given)	-8.9%	1.6%	-3.4%	3.7
C[C@@H](NC(=O)c1ncn(Cc2ccccc2)c1C(=O)N[C@H](C)c1ccccc1)c1ccccc1	8.3%	2.8%	.	.
COC(=O)c1ccc(NC(=O)c2cccc(Cl)c2)o1	1.5%	?	-6.1%	-14.9
CCCCNS(=O)(=O)NC(=O)C1=C(N2CCCC2)COC1=O	-19.0%	1.0%	.	.
COc1ccccc1Cn1c(=S)[nH]c2cc(C(=O)NCC3CCCO3)ccc2c1=O (stereo not given)	8.4%	-5.2%	11.0%	7.2[21.1 µM]
CCNC(=S)NNC(=O)CCn1c2ccccc2c2ccccc21	8.0%	3.3%	-0.8%	8.4
CCOc1ccc(CN(C)C(=O)CNC(=O)c2ccc3ccccc3c2)cc1OC	-3.8%	-0.3%	10.3%	.
O=C(CCC(=O)N1CCN(c2ccc(F)cc2)CC1)c1ccccc1	5.2%	0.9%	-10.0%	.
COc1cccc(-c2ocnc2C(=O)Nc2ccc3c(c2)CCC3)c1	0.1%	6.5%	-12.9%	.
CC(NC(=O)c1cc2c(cc1Cl)N1CCCCCC1=NS2(=O)=O)c1ccc(S(N)(=O)=O)cc1 (stereo not given)	9.6%	-1.2%	.	.
CCCN(CC(=O)Nc1ccccc1OC)C(=O)CCC(=O)c1ccc(F)cc1	9.8%	3.3%	.	.
Cc1ccc(CNC(=O)CN(C(=O)C2(C)CC(=O)N=C3C=CC=CN32)c2ccccc2F)cc1 (stereo not given)	16.7%	0.2%	10.6%	.
O=C(NCc1nnc(SCC(=O)N2CCCC2)o1)c1c(F)cccc1Cl	1.7%	0.2%	-4.2%	3.5
Cc1cc(C)c(C#N)c(N2CCN(Cc3ccccc3)CC2)n1	0.6%	2.0%	-12.3%	-1.2
CCN([C@H](CO)C(C)C)S(=O)(=O)c1ccccc1Br	-1.5%	?	.	.
COc1cc2c(cc1OC)C(Cc1ccc(O)cc1)NCC2 (stereo not given)	51.0%	-4.9%	-17.3%	-13.5
O=C(COn1nnc2ccc(Cl)cc21)NCc1ccccc1	-7.0%	3.5%	-9.7%	2.8
CCNc1nc(NC(C)CC)nc(Oc2ccc(=O)[nH]n2)n1 (stereo not given)	-28.7%	-1.3%	1.2%	5.5
C[C@H]1CN([C@@H](C)CO)C(=O)c2cccc(NS(=O)(=O)c3ccc(Cl)cc3)c2O[C@@H]1CN(C)CC1CCCCC1	-13.5%	3.6%	.	.
CCCCn1cnc2c(SCc3ccccc3F)nc(N)nc21	1.2%	-0.3%	.	.
